# Screens from PubChem.
# GIV-Gai inh: inhibitors of GIV peptide binding to Galpha-i3, primary screen, biochemical, fluorescence polarization, FITC-GIV GBA peptide, rat Galphai3; Guanine nucleotide-binding protein G(i) subunit alpha-3 (Rattus norvegicus), P08753; 90 min; hits give low values; scaled: aluminum fluoride 0%, vehicle 100%; percent of control (FP), % (no concentration beside the values); hit rate 0.42% among 210,000; AID 1224905, 2016;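 active means replicate mean at 85% of control or lower, very high polarization wells dropped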;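 further: wells of about 15 µL received 100 nL stock; the first replicate is given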
# Target sequence (P08753 whole entry, looked up): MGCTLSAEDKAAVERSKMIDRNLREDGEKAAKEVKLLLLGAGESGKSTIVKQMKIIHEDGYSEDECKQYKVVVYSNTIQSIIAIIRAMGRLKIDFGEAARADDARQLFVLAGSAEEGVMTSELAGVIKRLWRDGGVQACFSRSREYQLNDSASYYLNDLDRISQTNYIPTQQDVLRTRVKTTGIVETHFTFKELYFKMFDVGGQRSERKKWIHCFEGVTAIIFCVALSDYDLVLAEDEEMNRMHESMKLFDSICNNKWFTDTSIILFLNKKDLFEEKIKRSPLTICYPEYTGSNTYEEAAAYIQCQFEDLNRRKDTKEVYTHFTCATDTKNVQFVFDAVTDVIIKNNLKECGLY
# An asterisk follows results filed as active.
Compound | GIV-Gai inh
O=c1c2c(nc3n1CC(c1ccccc1)S3)-c1ccccc1CC21CCCCC1 (configuration not stated) | 106.7
Cc1cc(N2CCCCC2)n2nc(CN3CCC4(CC3)OCCO4)nc2n1 | 101.0
O=C1c2ccccc2C(=O)N1CC1c2ccccc2CCN1S(=O)(=O)c1ccc(Cl)s1 (configuration not stated) | 115.5
O=C(CN1C2=NCCCN2c2ccccc21)c1ccc(-c2ccccc2)cc1 | 125.2
Cn1c(SCc2ccccc2F)nnc(CCC(=O)N2CCCC2)c1=O | 103.2
Clc1cccc(Cl)c1Cn1c2ccccc2c2nc3ccccc3nc21 | 117.6
Cc1ccc(-c2nnc3s/c(=C\c4ccc([N+](=O)[O-])cc4)c(=O)n23)cc1 | 106.2
CCNc1ncnc2onc(-c3cc(F)cc(F)c3)c12 | 102.2

# Arranged by the number under GIV-Gai inh (high to low): 3 of the compounds above.
Compound | GIV-Gai inh
Clc1cccc(Cl)c1Cn1c2ccccc2c2nc3ccccc3nc21 | 117.6
O=c1c2c(nc3n1CC(c1ccccc1)S3)-c1ccccc1CC21CCCCC1 (configuration not stated) | 106.7
Cn1c(SCc2ccccc2F)nnc(CCC(=O)N2CCCC2)c1=O | 103.2

# The listing continues:
Compound | GIV-Gai inh
Brc1ccc(-n2cc(-c3ccccc3)c3c(N4CCC5(CC4)OCCO5)ncnc32)cc1 | 110.6
COc1ccc(C2(CNC(=O)/C=C(/C)c3ccccc3)CCCC2)cc1OC | 106.8
COc1ccc(OC)c(CNc2ncnc3onc(-c4cc(F)cc(F)c4)c23)c1 | 104.2
COc1ccc(Nc2ccc3c4c(ncnc24)-c2ccccc2C3=O)cc1 | 115.4
CC1(C)CC(NCc2ccccc2O)CC(C)(C)N1 | 105.5
Cc1ccc(-c2n[nH]c3c2C(c2ccccc2F)N(c2ccc(F)cc2)C3=O)cc1 (configuration not stated) | 103.8
CN(C)c1nc2ncn3c(=O)n(CC(=O)Nc4ccccc4)nc3c2s1 | 98.2
CN1C(=O)N(C)C2(c3ccccc3)N(C)C(=O)N(C)C12c1ccccc1 (configuration not stated) | 101.4
CCCC(=O)N1c2cc(C)c(C)cc2-c2c(ssc2=S)C1(C)C | 117.1
CCOc1ccc(-c2csc(Nc3ccc(C)cn3)n2)cc1 | 98.8
CC(C)NC(=O)CCn1c(=O)c2cc(Cl)ccc2n2c(=O)n(CC(=O)NC(C)C)nc12 | 96.5
C=C(C)CSc1nnc2n(-c3ccccc3)c(=O)c3c4c(sc3n12)CC(C(C)(C)C)CC4 (configuration not stated) | 112.7
O=C(c1ccc2c(=O)n(Cc3ccc4c(c3)OCO4)c(SCc3cccnc3)nc2c1)N1CCC2(CC1)OCCO2 | 108.5
CSC1=NC(=Nc2cccc(C)c2)C2(CCCC2)N1c1ccc(C)cc1 | 110.5
CC(C)c1cc(C2CCCN2C(=O)Cc2cccs2)on1 (configuration not stated) | 94.8
CC1=C(C(=O)Nc2ccc(Cl)cc2)C(c2ccncc2)C(C#N)=C(SCC(=O)Nc2ccc(C)c(Cl)c2)N1 (configuration not stated) | 100.1
Cc1cc(C)c(S(=O)(=O)N2CCC(c3noc(-c4ccccc4)n3)CC2)cc1C | 111.3
CC(C)CCSc1nnc2c(S(=O)(=O)N3CCOCC3)cccn12 | 98.2
CCOC(=O)C1=C(C)NC2=C(C(=O)c3ccccc32)C1c1cc(Br)ccc1OCC (configuration not stated) | 109.4
CC(=O)c1ccc(NC(=O)CSC2=C(C#N)C(c3ccc4c(c3)OCO4)C3=C(CCCC3=O)N2)cc1 (configuration not stated) | 111.4
S=c1sc2c(N3CCCCC3)ncnc2n1-c1ccccc1 | 111.8
CCCc1oc2c(cc(NS(=O)(=O)c3ccc(OCC)cc3)c3ccccc32)c1C(=O)OCC | 95.3
CCn1ccc(C(=O)N2CCCn3nc(-c4cccs4)cc3C2)n1 | 104.3
O=C(CNC(=O)c1ccccc1Cl)N/N=C/c1ccc([N+](=O)[O-])s1 | 102.6
C=CCn1c(/C=C/C=C2N(CC)c3cc(Cl)c(Cl)cc3N2CC)[n+](CCCS(=O)(=O)[O-])c2cc(Cl)c(Cl)cc21 | 169.3
CCOc1cccc(NC(=O)C2CC(=O)N(C)C(=Nc3cccc(C(F)(F)F)c3)S2)c1 (configuration not stated) | 106.7
Cc1ccc(/C=C2\SC(=O)N(CNc3c(C)cc(Br)cc3C)C2=O)o1 | 108.7
CCc1c(C)nc2ncnn2c1Sc1ccc(N(C)C)cc1 | 105.5
COc1ccc(CNC(=O)c2cc(-c3ccc(OC)c(OC)c3)nc3n[nH]c(-c4ccc(OC)cc4)c23)cc1 | 100.9
COc1ccc(/C=C2\SC(=N)N(c3ccc(C)c(C)c3)C2=O)cc1OC | 103.6
CC(C)(C)c1ccc(C(=O)N/C(=C\c2ccc([N+](=O)[O-])cc2)C(=O)Nc2ccccc2Cl)cc1 | 110.8
Cc1nn(CC(=O)NCCc2ccc(S(N)(=O)=O)cc2)c(=O)c2c(C)n(-c3ccccc3)nc12 | 105.6
Cc1cc2c(C)c(C(=O)N3CCCC3)oc2c(S(=O)(=O)NCc2ccc3c(c2)OCO3)c1C | 101.0
c1cc2nncn2nc1NC1CCCCC1 | 104.5
COc1cc(Nc2nc(SCC(=O)NCCc3ccc(S(N)(=O)=O)cc3)nc3ccccc23)cc(OC)c1 | 99.6
O=C(O)c1ccc2noc(-c3ccccc3)c2c1 | 102.4
O=C(CCc1nc(CSc2n[nH]c(-c3ccccc3)n2)no1)Nc1nccs1 | 107.9
Cc1noc(C2CCN(CC(O)c3ccc4c(c3)OCO4)CC2)n1 (configuration not stated) | 107.6
O=C(CSc1nc2ccc(NC(=O)CCc3ccccc3)cc2s1)NCC1CCCO1 (configuration not stated) | 108.1
COc1ccc(C2=NN(c3ccc([N+](=O)[O-])cc3)C(=O)/C2=C\c2ccc(OC)c(O)c2)cc1 | 104.0
CCCNS(=O)(=O)c1cc(-c2nc(C(C)C)cs2)sc1C | 103.4
CCN(c1cccc(C)c1)S(=O)(=O)c1cc(-c2nc(C)cs2)sc1C | 175.6
CC1(C)CC(=O)C2=C(C1)N(c1ccccc1)C(N)=C(C#N)C2c1ccc(Br)s1 (configuration not stated) | 121.9
O=S(=O)(c1ccc(F)c(Cl)c1)N(Cc1ccco1)CC1CCCO1 (configuration not stated) | 103.7
O=C1Nc2ccccc2Oc2cc(Cl)c(S(=O)(=O)N3CCc4ccccc4C3)cc21 | 108.3
Cc1ccc[n+](C2C(c3ccc([N+](=O)[O-])cc3)C(C#N)=C([S-])NC2(O)C2CC2)c1 (configuration not stated) | 105.2
CC1CCN(CC(O)Cn2c(-c3ccccc3)c(-c3ccccc3)c3ccc4ccccc4c32)CC1 (configuration not stated) | 109.5
CC(C)(C)NC(=O)NC1CCN(C(=O)C2CCC2)C1 (configuration not stated) | 101.2
O=C(c1cc(NS(=O)(=O)c2ccc(Cl)cc2)ccc1N1CCNCC1)N1CCOCC1 | 114.3
Cc1cc2c(cc1C)NC(=O)CC(c1cc([N+](=O)[O-])c(Cl)cc1Cl)=N2 | 97.9
CCOc1ccc(C2=NN3C(C2)c2cccc(OCC)c2OC3c2cc(OC)ccc2OC)cc1 (configuration not stated) | 104.5
CCCc1cc(C(=O)N2CCCC2c2cc(CC)no2)no1 (configuration not stated) | 99.8
COC(=O)c1sccc1NC(=O)Cn1c(C)cc(C)c(-c2nc(-c3ccc(C)cc3)no2)c1=O | 103.4
CC1CCCN(S(=O)(=O)c2cc(-c3nnc(C4CCCC4)o3)co2)C1 (configuration not stated) | 101.2
CC(C)NC(=O)N1CCCN(Cc2cccs2)CC1 | 101.1
O=C(Nc1cc(C(=O)N2CCC(Cc3ccccc3)CC2)ccc1N1CC2CC(C1)c1cccc(=O)n1C2)c1cccs1 (configuration not stated) | 109.8

# (continued)
Compound | GIV-Gai inh
CC1(C)CC2(CC(C)(C)OC2=O)C(=O)O1 | 107.5
CCOC(=O)N1CCN(c2ncnc3c2c(-c2ccccc2)cn3-c2ccc(OCC)cc2)CC1 | 107.5
Cc1cccc(-n2nnnc2C2(N=Cc3cccc([N+](=O)[O-])c3)CCCCC2)c1 | 108.8
CN1C(=O)c2ccc(NC(=O)CCc3nc(CSc4nc5ccccc5s4)no3)cc2C1=O | 103.7
O=S(=O)(c1cc(-c2noc(C3CCC3)n2)cs1)N1CCOCC1 | 100.1
CCCc1ccc(-c2c3c(c(-c4ccccc4)n2-c2ccccc2OCC)C(=O)c2ccccc2C3=O)cc1 | 107.8
Cc1cccc(N2C(=N)S/C(=C\c3cn[nH]c3-c3ccc(F)cc3)C2=O)c1 | 112.9
CCCS(=O)(=O)c1c(S(=O)(=O)CCC)c2c(C)cc(C)cn2c1C(=O)c1ccc(Br)cc1 | 100.9
CCCCNc1nc(SC(CC)C(=O)NCc2cccnc2)nc2ccccc12 (configuration not stated) | 114.8
O=C(NCCN1CCCCC1)C1CCCN(c2ncc(-c3ccc(F)cc3)cn2)C1 (configuration not stated) | 104.8
COc1ccccc1N1CCN(c2cnn(-c3ccc(C(=O)O)cc3)c(=O)c2Cl)CC1 | 104.2
COc1cc(C2=N/C(=C/N3CCOCC3)C(=O)O2)cc(OC)c1OC | 98.7
Cn1nc(C(=O)N2CCCC2)c2c1CCN(C(=O)CCC(=O)NCc1cccnc1)C2 | 106.7
O=C(NCCC1=CCCCC1)C1CCCN(c2nc3ccc(Br)cc3[nH]2)C1 (configuration not stated) | 102.4
COc1ccc(-n2cnc3c(C)nc(Nc4ccc(C)cc4)nc32)cc1 | 105.0
CCNc1nc(OC)nc(N2CC(=O)N(CC(=O)OCC)C2=N)n1 | 106.7
CC(C)Nc1nc(Cl)nc(Nc2nc(-c3ccccc3)cs2)n1 | 113.9
O=C1/C(=C/c2ccc([N+](=O)[O-])cc2)C=C(c2ccccc2)N1c1ccc(O)cc1 | 108.2
CCOC(=O)c1sc2nc(C)c(C(=O)Nc3ccccc3)c(-c3ccc(OC)cc3)c2c1N | 107.0
Cc1nc(-c2cc(S(=O)(=O)Nc3ccc(Br)cc3F)c(C)s2)cs1 | 100.2
O=C(Cc1nnc(NC(=O)Nc2cccc(F)c2)s1)NCc1ccccc1 | 110.3
O=C(CC(c1ccccc1)c1ccccc1)N1CCCc2ccccc21 | 102.5
O=S(=O)(c1ccc(-c2nnc(C3CCC3)o2)o1)N1CCCCCC1 | 103.5
Cc1cc(NC(=O)CSc2nc3cc(C(=O)NCC4CCCO4)ccc3c(=O)n2CC2CCCO2)no1 (configuration not stated) | 116.8
O=C(NCCCN1CCOCC1)c1cc(-c2ccccc2)nc2n[nH]c(-c3ccccc3)c12 | 108.1
Cc1cccc(-n2nc3c(c2NC(=O)c2ccc(S(=O)(=O)N(C)C)cc2)CS(=O)(=O)C3)c1C | 109.1
CCCCS(=O)(=O)N1CCc2c(c(-c3nnc(-c4ccc(F)cc4)o3)nn2C)C1 | 103.8
OC(CN1CCN(c2ccc(F)cc2)CC1)c1ccc2c(c1)OCO2 (configuration not stated) | 104.4
CC(=O)N1CCc2cc(N3CC(C(=O)NCc4cccs4)CC3=O)ccc21 (configuration not stated) | 109.1
C1CCN(c2nc(N3CCCCC3)nc(N3CCNCC3)n2)CC1 | 110.0
COC(=O)CSc1n[nH]c(-c2ccncc2)n1 | 100.3
O=C1/C(=C/c2ccc(-c3ccc([N+](=O)[O-])cc3)o2)C=C(c2ccccc2)N1c1cccc([N+](=O)[O-])c1 | 111.3
CCC(Sc1nc2cc(C(=O)NCCOC)ccc2c(=O)n1Cc1ccco1)C(=O)NCc1cccnc1 (configuration not stated) | 108.4
CCC(C)NC(=O)c1ccc2c(c1)[nH]c(=S)n1c3ccccc3nc21 (configuration not stated) | 111.1
CC1C(c2ccccc2)N(C)C(c2ccccc2)C(C)C1(O)c1ccc(F)cc1 (configuration not stated) | 98.3
CCC(C)NC(=O)Cn1cnc2nc(N3CCC(C(=O)NC)CC3)sc2c1=O (configuration not stated) | 102.6
CCCN1CCc2nc(SCc3c(C)cc(C)cc3C)[nH]c(=O)c2C1 | 98.6
O=S(=O)(c1ccccc1)N1C[C@@H]2CN(S(=O)(=O)c3ccc4c(c3)CCC4)C[C@H](C1)O2 | 103.9
Cc1ccc(N2CCN(S(=O)(=O)c3cc(-c4nnc(C5CCC5)o4)co3)CC2)cc1 | 99.6
CN1C=C/C(=C\C=C(/C#N)C(=O)Nc2ccccc2)c2ccccc21 | 114.1
O=c1oc2ccccc2cc1-c1nc(-c2cccs2)cs1 | 11.1*
CCOC(=O)c1[nH]c(C)c(CCC(=O)N2CCc3ccccc32)c1C | 107.0
Cc1csc(-c2cc(S(=O)(=O)NC3CC3)c(C)n2C)n1 | 102.3
Cn1c(=O)c2c(ncn2Cc2cccc(Br)c2)n(C)c1=O | 108.0
Cc1ccc(OCCOc2ccc(/C=C3/C(=N)N4C(c5ccccc5)=CSC4=NC3=O)cc2)cc1C | 118.3
Nc1nc(Cn2nnc(-c3ccc4c(c3)OCO4)n2)nc(N2CCCCC2)n1 | 101.1
Nc1ccccc1N=Cc1c(O)n(-c2ccccc2)c(=S)n(-c2ccccc2)c1=O | 165.1
Cc1nc(-c2ccc(C)c(S(=O)(=O)NCC(=O)N3CCN(c4ccc(Cl)cc4)CC3)c2)no1 | 98.5

# Grouped by structure: the compounds so far with a COOH group
Compound | GIV-Gai inh
O=C(O)c1ccc2noc(-c3ccccc3)c2c1 | 102.4
COc1ccccc1N1CCN(c2cnn(-c3ccc(C(=O)O)cc3)c(=O)c2Cl)CC1 | 104.2

# (more compounds)
Compound | GIV-Gai inh
Cc1csc(-c2cc(S(=O)(=O)NCc3cccs3)c(C)s2)n1 | 121.2
O=C(Nc1ccccc1)c1ccc(=O)n(CC(=O)N2CCN(c3ccccc3)CC2)n1 | 106.9
O=S(=O)(NCCc1nc(-c2ccc(F)cc2)n[nH]1)c1ccccc1F | 102.9
COc1ccc(/C=C2\C=C(c3ccccc3)N(c3cc(C)ccc3C)C2=O)cc1Br | 109.6

# This is a subset; count on the stated rates, not on these rows.
